# Compound activity as filed in PubChem.
# RGS16-Gao HTS – RGS16-Galphao interaction regulator (human); 0.38% of 220,000 active; binding response (% of control), % at 10 µM; AID 1441; bead-based flow cytometry RGS16-Galphao binding, fluorescence; actives lie on both sides;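 active = below 25% or above 175%, edge rows of some plates excepted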;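 note: Galphao activated by GDP with aluminum fluoride before binding; 100% = wells without compound and 0% = beads without RGS; some results beyond the cut were filed as inactive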
# INS promoter inh – TRM-6 insulin promoter activity inhibition | TRM-6 cells (human fetal islet line), insulin promoter-eGFP reporter, imaging; reporter expression induced with tamoxifen | inhibition, % at 2 µM | 0.9% of 130,000 active;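 active = inhibition above the mean plus 3 SD, with well images judged a real hit on visual review, cut at about 60% in these data, passing the limit was not always enough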
# HSV augment – increases HSV replication in cells; HSV replication augmentation in cells, fold increase; 0.005% of 220,000 active; maximum fold increase;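 active = peak rise of 1.5-fold or more in the series; tested in PC3 cells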;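 note: first round at 10 µM; read as green reporter fluorescence; hits show the peak of a series up to 25 µM; 1 = signal of infected wells without compound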
# PKD1 kinase inh – PKD1 (human) kinase inhibition | inhibition, %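 (about 10 µM by stock and volumes)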 | Q15139 | AID 797 | 0.056% of 200,000 active | PKD1 kinase fluorescence polarization assay;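 active = inhibition of 50% or more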;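 note: controls were vehicle for no effect and a reference inhibitor for full effect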
# Target sequence (Q15139 whole entry, looked up): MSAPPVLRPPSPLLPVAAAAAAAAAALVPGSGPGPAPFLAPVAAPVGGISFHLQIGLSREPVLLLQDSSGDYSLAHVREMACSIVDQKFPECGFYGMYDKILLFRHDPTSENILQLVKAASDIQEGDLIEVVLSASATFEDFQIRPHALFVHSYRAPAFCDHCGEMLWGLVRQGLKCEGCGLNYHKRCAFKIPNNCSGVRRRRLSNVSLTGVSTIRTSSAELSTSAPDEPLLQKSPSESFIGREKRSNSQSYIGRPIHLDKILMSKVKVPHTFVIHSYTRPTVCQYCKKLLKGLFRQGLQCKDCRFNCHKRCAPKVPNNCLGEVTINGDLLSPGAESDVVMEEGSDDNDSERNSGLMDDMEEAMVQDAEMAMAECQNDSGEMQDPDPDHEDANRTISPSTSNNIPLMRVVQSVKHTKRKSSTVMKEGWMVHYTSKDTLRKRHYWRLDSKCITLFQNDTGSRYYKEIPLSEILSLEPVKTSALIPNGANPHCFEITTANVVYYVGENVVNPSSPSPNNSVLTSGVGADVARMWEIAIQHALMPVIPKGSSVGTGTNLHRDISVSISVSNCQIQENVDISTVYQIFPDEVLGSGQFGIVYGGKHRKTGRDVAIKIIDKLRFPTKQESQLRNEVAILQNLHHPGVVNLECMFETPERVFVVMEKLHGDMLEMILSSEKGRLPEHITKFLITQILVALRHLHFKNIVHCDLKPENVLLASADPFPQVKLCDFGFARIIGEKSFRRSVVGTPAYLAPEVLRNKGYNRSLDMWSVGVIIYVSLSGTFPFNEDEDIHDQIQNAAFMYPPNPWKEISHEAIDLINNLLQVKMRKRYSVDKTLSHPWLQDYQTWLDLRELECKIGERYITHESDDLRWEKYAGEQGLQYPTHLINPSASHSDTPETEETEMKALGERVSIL
# GALR2 ag – GALR2 (human) receptor agonism | activation, %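 (tested at 5 µM)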 | 0.48% of 140,000 active | GALR2-expressing cells, agonist activation read-out | AID 803 | O43603;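 active = above mean plus 3 SD of all compounds, about 5% in these data, not always enough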;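 note: 0% = vehicle buffer wells and 100% = reference agonist at full effect; tested in CHO reporter cells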
# INS promoter inh cell count – recorded beside INS promoter inh, whose call it bears; normalized cell count, %; measured here: cell count, toxicity; reference of the scale not given here;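 cells exposed to compound for 48 h; stained nuclei by imaging scaled within each plate; lower means fewer cells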
# HSV augment primary fold – recorded beside HSV augment, whose call it bears; fold increase; compound at 10 µM; measured here: primary screen fold increase 10 uM; tested in PC3 cells;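 GFP signal in the first replicate; 1 = infected wells without compound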
# * marks the source's active call; other numbers are inactive results; i = inactive; / = no result given; [ ] = dose if it differs, or a comment.
# Values run as follows: INS promoter inh	GALR2 ag	HSV augment	HSV augment primary fold	RGS16-Gao HTS	INS promoter inh cell count	PKD1 kinase inh
O=c1oc(Nc2cccc(F)c2)nc2ccccc12
  0	-1.3	i	1	101	123	-12
O=C(Cc1coc2cc3c(cc12)CCC3)OCC(=O)N1CCCC1=O
  14	/	/	/	110	23	-5
CCCCc1c(O)nc(SCC(=O)c2ccccc2)n(-c2ccccc2OC)c1=O
  /	/	i	1	102	/	/
O=C(NNC(=O)c1cccc(Br)c1)Nc1ccc(Cl)cc1
  -11	/	i	1	104	120	-1
O=C(NCCC(c1ccccc1)c1ccccc1)c1cnc2sccn2c1=O
  17	/	i	0.79	111	50	-5
CCCCNC(=O)NS(=O)(=O)c1cnccc1Sc1ccc(Cl)cc1
  -8	-0.7	i	0.99	104	180	0
Nc1cc(Oc2cccnc2)cc([N+](=O)[O-])c1
  /	/	i	1	97	/	3
CN(C)C(=O)c1cn(-c2ccccc2)c(=O)c2ccccc12
  -41	-0.4	i	0.93	100	131	-2
COC(=O)CSc1nnc(CNC(=O)c2ccc(S(=O)(=O)N(C)C)cc2)n1C
  /	/	i	1	102	/	3
COc1ccc(C(=O)COC(=O)C2CCN(S(=O)(=O)c3cccc4cccnc34)CC2)cc1
  -130	-0.3	i	1	102	133	3
C[C@H]1CC[C@H]2C(=O)N3[C@H](c4cccc(N5CCCC5=O)c4)[C@@H](C)CC[C@H]3C(=O)N2[C@@H]1c1cccc(N2CCCC2=O)c1
  -67	-0.2	/	/	70	81	1
COc1ccc(-c2cn3c4c(sc3n2)CCCC4)cc1
  24	0.3	i	0.83	101	172	2
O=C(CN1CCOCC1)n1c2ccccc2c2ccccc21
  -26	-2.8	i	0.93	96	135	-3
S=c1[nH]nc(-c2cc(-c3ccccc3)n[nH]2)n1/N=C/c1c(Cl)cccc1Cl
  /	/	i	0.98	100	/	/
COc1ccc2c(c1)OC(c1ccccc1)(C(F)(F)F)NC2=O (stereo not given)
  /	-1.2	i	1.1	101	/	-9
c1csc(-c2nn3c(Cn4cnc5ccccc54)nnc3s2)c1
  48	-1.5	i	1.2	76	127	9
Cc1csc(NC(=O)c2ccc(S(=O)(=O)N(C)c3ccccc3)cc2)n1
  49	0.1	i	0.9	97	72	-10
CCN1CCN(C(=S)c2ccc(OC)cc2)CC1
  /	/	i	0.91	85	/	-1
CCOC(=O)c1cc(-c2csc(-c3ccc(C(F)(F)F)cc3)n2)on1
  /	/	i	0.91	101	/	/
Cn1c(=O)[nH]c(=O)c2c1nc(NCCCn1ccnc1)n2CCOc1ccccc1
  9	-0.4	i	0.95	103	95	5
COc1cccc(C(=O)Oc2c(CN3CCOCC3)cc(Cl)c3cccnc23)c1
  14	-1.9	i	0.84	108	63	-7
C/C(=N\NC(=O)c1c[nH]c2ccccc12)c1ccccn1
  /	/	i	0.91	97	/	1
CCOC(=O)c1cc(-c2ccc(OC)cc2)nn1-c1ccccc1C(=O)O
  /	/	i	0.9	98	/	/
O=C(Cc1c[nH]c2ccccc12)NCc1ccco1
  /	/	i	0.92	100	/	-3
COc1cc(OC)cc(C(=O)Nc2ncc3c(n2)CC(C)CC3=O)c1 (stereo not given)
  0	-1.7	i	0.96	/	191	-8
CCN(CC(=O)Nc1c(C(=O)OC)[nH]c2ccc(C)cc12)c1ccc2c(c1)OCO2
  -91	-1.9	i	0.85	103	115	3
COc1ccc(C)cc1NC(=O)c1cc2ccccc2o1
  -8	-0.8	i	0.91	100	38	-5
CC1=CC(C)(C)N2C(=O)C3(SCC(=O)N3c3ccc(O)cc3)c3cc(C)cc1c32 (stereo not given)
  /	-0.8	i	0.85	101	/	3
Cc1nn(CC(O)Cn2cnc3c2c(=O)n(C)c(=O)n3C)c(C)c1Br (stereo not given)
  24	-2.6	i	1.1	101	86	-3
CC1(C)CC(NNCCC#N)=CC(=[N+]2CCCC2)C1
  /	/	i	0.97	99	/	5
CCOC(=O)C1CCN(CC(=O)NC(=O)NC2CCCCC2)CC1
  46	/	i	1.2	101	129	-5
CCCCn1c(-c2cccnc2)n[nH]c1=S
  /	-0.9	i	1.3	115	/	-12
CCOC(=O)N1CCC(NC(=O)CCS(=O)(=O)c2ccc3c(c2)CCN3C(C)=O)CC1
  -44	-1.2	/	/	103	141	-3
O=C(/C=C/c1ccc(O)c(O)c1)O[C@H](Cc1ccc(O)c(O)c1)C(=O)O
  /	/	i	0.91	83	/	/
CCOC(=O)C(=O)Nc1ccccc1C(=O)NC(C)C
  -10	-1.1	i	1	102	80	-7
CC1=C(C(=O)N(C)C)C(c2ccc(C)s2)NC(=S)N1 (stereo not given)
  14	/	i	1	66	71	2
CCOC(=O)N1CCN(C(=O)C2CCN(C(=O)c3cc(OC)cc(OC)c3)CC2)CC1
  -12	-0.9	i	1.1	205*[activator]	109	12
O=C(COC(=O)CNC(=O)C1CCCCC1)Nc1ccc(Cl)cn1
  -44	-0.6	i	0.88	116	129	-4
Cc1cccc(C)c1NC(=O)C1(N(Cc2ccco2)C(=O)c2ccccn2)CCCC1
  -140	-1.3	i	1.1	112	102	-9
Cc1ccc2c(c1)C1OCCC1C1N2C(=O)C2C(C(=O)O)C3C=CC21O3 (stereo not given)
  -78	-2.4	i	1	105	39	-9
O=C(CSc1nnnn1C1CCCC1)Nc1ccc2c(c1)OCCO2
  73*	-2.4	i	0.81	112	70*	-26
COC(=O)C1CCN(C(=O)N2CCOCC2)CC1
  -71	-0.5	i	0.91	105	107	-11
Cc1cc(C)n2cc(CSc3ccccn3)nc2n1
  67	/	i	1	101	37	-6
CCOC(=O)C1CCN(c2c(N(C)Cc3ccco3)c(=O)c2=O)CC1
  /	-0.3	i	0.69	99	/	14
COC(=O)c1cc(OC)c(OC)cc1NC(=O)c1ccccc1C
  /	/	i	0.95	100	/	4
Cc1ccc(C)c(CSc2nnc(-c3cccnc3)o2)c1
  -96	-2.1	i	0.83	80	104	-6
Cc1ccc(N(CC(N)=O)C2SC(=O)N(Cc3cccc(C(=O)O)c3)C2=O)cc1 (stereo not given)
  -41	-0.8	i	1	97	67	-4
O=C(COC(=O)c1ccccc1Nc1ccccc1)NCc1ccccc1Cl
  /	1.7	i	1.1	150	/	5
C#CCNC(=O)C1=C[C@@H](c2ccc(C(F)(F)F)cc2)[C@H](CCCO)[C@@H](OCC)O1
  /	/	i	1.3	97	/	-4
O=C(O)c1ccc(COc2ccc(/C=N/NC(=O)c3cccs3)cc2)cc1
  -9	-0.2	/	/	103	111	3
O=C(O)/C=C/c1cccc2c1OCCO2
  /	/	i	0.96	105	/	/
O=C(c1ccc(S(=O)(=O)N2CCCCC2)cc1)N1CCN(CCN2C(=O)c3cccc4cccc(c34)C2=O)CC1
  /	/	i	0.78	100	/	2
CC(=O)c1ccccc1NS(C)(=O)=O
  /	/	i	0.98	103	/	-9
Nc1c(C(=O)OCC(=O)NCc2ccccc2)[nH]c(=O)[nH]c1=O
  /	/	i	1.1	98	/	/
COc1ccc(Cl)cc1NC(=O)c1ccco1
  6	-3.5	i	1	100	211	-11
CC(NC(=O)c1ccccc1O)c1ccccc1 (stereo not given)
  39	-1.6	i	0.82	104	139	-7
O=C(c1cccn2c(=O)c3cc(Cl)ccc3nc12)N1CCOCC1
  -52	-0.3	i	1.3	106	142	-10
O=C(COC(=O)CCc1c[nH]c2ccccc12)NCc1ccc(Cl)cc1
  9	-0.9	i	0.96	102	145	-1
Cc1ccc(C(=O)N2CCC(C(N)=O)CC2)cc1C
  -100	-0.9	i	0.95	101	102	-6
CCN(CC)CCNC(=O)Cn1ncc2ccccc2c1=O
  /	/	i	0.86	98	/	/

# A draw from above in order of length of the SMILES, falling.
# Values run as follows: INS promoter inh	GALR2 ag	HSV augment	HSV augment primary fold	RGS16-Gao HTS	INS promoter inh cell count	PKD1 kinase inh
O=C(c1ccc(S(=O)(=O)N2CCCCC2)cc1)N1CCN(CCN2C(=O)c3cccc4cccc(c34)C2=O)CC1
  /	/	i	0.78	100	/	2
C#CCNC(=O)C1=C[C@@H](c2ccc(C(F)(F)F)cc2)[C@H](CCCO)[C@@H](OCC)O1
  /	/	i	1.3	97	/	-4
Cc1ccc(N(CC(N)=O)C2SC(=O)N(Cc3cccc(C(=O)O)c3)C2=O)cc1 (stereo not given)
  -41	-0.8	i	1	97	67	-4
Nc1c(C(=O)OCC(=O)NCc2ccccc2)[nH]c(=O)[nH]c1=O
  /	/	i	1.1	98	/	/
O=C(COC(=O)CCc1c[nH]c2ccccc12)NCc1ccc(Cl)cc1
  9	-0.9	i	0.96	102	145	-1
O=C(COC(=O)c1ccccc1Nc1ccccc1)NCc1ccccc1Cl
  /	1.7	i	1.1	150	/	5
COC(=O)c1cc(OC)c(OC)cc1NC(=O)c1ccccc1C
  /	/	i	0.95	100	/	4
Cc1ccc(C(=O)N2CCC(C(N)=O)CC2)cc1C
  -100	-0.9	i	0.95	101	102	-6
COC(=O)C1CCN(C(=O)N2CCOCC2)CC1
  -71	-0.5	i	0.91	105	107	-11
Cc1cc(C)n2cc(CSc3ccccn3)nc2n1
  67	/	i	1	101	37	-6
CC(NC(=O)c1ccccc1O)c1ccccc1 (stereo not given)
  39	-1.6	i	0.82	104	139	-7
O=C(O)/C=C/c1cccc2c1OCCO2
  /	/	i	0.96	105	/	/

# Carrying on.
# Values run as follows: INS promoter inh	GALR2 ag	HSV augment	HSV augment primary fold	RGS16-Gao HTS	INS promoter inh cell count	PKD1 kinase inh
CN(C)c1ccc(CN(C(=O)COc2ccc(F)cc2)C2CCS(=O)(=O)C2)cc1 (stereo not given)
  33	-2.5	i	0.99	105	98	9
Cc1cc(-c2nnc(CCC(=O)NC(C)c3ccc(F)cc3)o2)no1 (stereo not given)
  45	/	i	0.88	71	64	1
O=[N+]([O-])c1ccc(NCCCN2CCOCC2)c([N+](=O)[O-])c1
  /	/	i	0.88	101	/	-12
COc1cccc(C(=O)N/N=C(/CCC(=O)O)c2ccccc2)c1
  -50	-1.2	i	0.86	112	137	-3
NNC(=O)c1sc2nc(N3CCOCC3)c3c(c2c1N)CCCC3
  /	/	i	0.92	92	/	/
COC(=O)c1c(C(=O)OC)c(-c2cccc(C)c2)n2c1CS(=O)C2 (stereo not given)
  -15	/	i	0.99	87	92	-6
COc1ccc(C(NC(=O)/C=C/c2ccco2)c2ccc(OC)c(OC)c2)cc1 (stereo not given)
  -54	-0.2	i	1.1	101	100	-9
O=C(NCc1cccnc1)c1nc(-c2ccc(C(F)(F)F)cc2)no1
  -300	/	i	0.95	99	57	-6
CSc1nnc(-c2cccn(Cc3ccccc3)c2=O)o1
  /	/	i	0.82	99	/	7
CS(=O)(=O)N(CC(=O)N1CCN(c2cccc(Cl)c2)CC1)C1CCCCC1
  0	-2.4	i	0.92	103	112	-9
COc1cccc(C2CCCN2Cc2nc(CC3CC3)no2)c1 (stereo not given)
  /	/	i	1	94	/	-3
COc1ccc(N(CC(=O)Nc2ccccc2C(=O)NCCc2ccccc2)S(C)(=O)=O)cc1OC
  0	-0.3	i	0.98	106	109	-3
CSc1nc(N(C)C)c2ccccc2n1
  44	/	i	0.83	100	111	-8
COc1ccc(-c2cc(C(F)(F)F)nc(SCC(=O)NCCCN3CCOCC3)n2)cc1
  /	/	i	0.92	102	/	-6
COc1cc(OC)c(CN2CCC(CO)(CCOc3ccccc3)CC2)c(OC)c1
  -4	/	i	0.85	102	104	-4
C=CCN1C(=O)C2(/C(=C(\O)c3ccc4c(c3)OCCO4)C(=O)C(=O)N2CCCOC)c2ccccc21 (stereo not given)
  -10	-0.7	i	0.7	102	152	-8
CCOC(=O)c1c(-c2ccc(C)c(C)c2)csc1NC(=O)C1CC=CCC1C(=O)O (stereo not given)
  -22	-0.5	/	/	105	121	2
CC(C)(C)c1ccc(S(=O)(=O)Nc2ccccn2)cc1
  /	/	i	1	99	/	3
NC(=O)COC(=O)/C=C/c1ccccc1[N+](=O)[O-]
  /	/	i	0.9	97	/	-10
N/C(=N\OC(=O)Cc1ccccc1[N+](=O)[O-])c1ccncc1
  3	0.4	i	1.1	103	119	5
Cc1cc(C)nc(N/C(=N\S(=O)(=O)Cc2ccccc2)Nc2ccc(F)c(Cl)c2)n1
  -47	0.1	i	0.89	103	99	2
Cc1ccccc1NC(=O)N1CCc2ccccc2C1
  10	/	i	0.95	101	162	-2
